Assay outcomes: PubChem, Broad Institute
FGF22 binding – FGF22 (human) thermal shift binding | Q9HCT0 | recombinant FGF22 thermal shift, SYPRO orange fluorescence; percent of sucrose octasulfate shift, DMSO zero | calls only at 9.99 µM | hit rate 1.5% among 340,000;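 active means melting point raised past a set limit in the mean and every replicate; inconclusive means no clear call; three in four hits are not shown here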
Target sequence (Q9HCT0 whole entry, looked up): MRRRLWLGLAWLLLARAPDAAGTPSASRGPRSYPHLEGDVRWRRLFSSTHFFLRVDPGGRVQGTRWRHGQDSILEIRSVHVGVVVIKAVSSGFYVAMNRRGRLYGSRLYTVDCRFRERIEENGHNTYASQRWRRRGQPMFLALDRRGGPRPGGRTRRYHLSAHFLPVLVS
RanGTP-Imp inh – inhibitors of RanGTP-importin-beta interaction, primary screen, biochemical, FRET, CFP-Ran, YFP-importin-beta, homogeneous; AID 2216; inhibition, % (test concentration not listed); hit rate 1.1% among 300,000; cell-free CFP-Ran/YFP-importin-beta FRET ratio;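 active means most replicates above 15%; inconclusive means exactly half above 15%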;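 further: 0% = DMSO wells and 100% = Ran loaded with GDP instead of GTP; wells of about 40 µL received 100 nL stock; the first replicate is given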
T cruzi inh – T. cruzi replication inhibition; T. cruzi beta-gal in NIH3T3, luminescence, 90 h; inhibition, % (no concentration beside the values); hit rate 1.4% among 300,000;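 active means mean inhibition across valid replicates above about 55%, limit read from the data; inconclusive means mean below that limit but half or more replicates reach it; inactive means mean below it, under half of replicates reach it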;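 further: signal also drops with host cell toxicity which is not excluded here; 0% = plate median of DMSO wells and 100% = zero luminescence signal; higher percent means less beta-gal luminescence so fewer parasites; stock transfer was 50 nL into about 50 µL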
rRNA inh HTS – inhibitors of bacterial rRNA selective over humanized ribosomes. E. coli WT GFP vs humanized-ribosome RFP mutants, fluorescence, 24 h; stronger effect = lower value; DMSO median 0, no signal -100. GFP signal change (wild-type ribosome), % (test concentration not listed). hit rate 1.6% among 350,000. AID 720706;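 active means significant combined selectivity score with lowered wild-type GFP, culture density cut under 30%, mutant RFP and density less affected; inactive means any of these conditions unmet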; further: one replicate is shown; some compounds called inactive have numbers as strong as hits
Beta apoptosis – beta cell apoptosis inhibition; hit rate 0.8% among 300,000; INS-1E cytokine-induced death, ATP luminescence, 48 h; percent of positive-control rescue, neutral wells zero; protection from apoptosis, % (concentration not given with the values); AID 435005;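 active means all replicates at 75% or more, or half of them and the mean; inconclusive means half reach 75% but not the mean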;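 further: 0% = cytokine-treated negative control wells and 100% = positive control rescue; higher means more ATP so stronger rescue from cytokine killing; wells of about 40 µL received 100 nL stock; the first replicate is given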
ALR inh – human ALR oxidase inhibition via reduced H2O2 | P55789 | purified ALR, DTT oxidation, H2O2 HRP-luminol luminescence | inhibition, % (test concentration not listed) | hit rate 3.8% among 290,000;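 active means mean and each replicate at 75% or more; inconclusive means only one of the two met; inactive means neither met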;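 further: stock transfer was 7.5 nL into about 7.5 µL; 0% = neutral wells and 100% = wells with inactivated enzyme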
Target sequence (P55789 whole entry, looked up): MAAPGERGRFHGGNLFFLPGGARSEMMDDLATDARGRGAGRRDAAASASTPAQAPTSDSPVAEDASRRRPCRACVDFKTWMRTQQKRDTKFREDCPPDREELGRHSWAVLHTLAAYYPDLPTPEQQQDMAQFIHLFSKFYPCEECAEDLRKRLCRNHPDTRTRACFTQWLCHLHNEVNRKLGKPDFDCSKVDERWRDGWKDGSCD
Calb FLC – C. albicans growth modulation with fluconazole; C. albicans CaCi-2 (fluconazole-resistant clinical isolate) + fluconazole, Alamar Blue growth, 48 h; growth inhibition, % (test concentration not listed); hit rate 0.57% among 300,000;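 active means most replicates above 75%; inconclusive means exactly half above 75%; inactive means most below 75%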;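 further: all wells also contain fluconazole at 8 µg/ml as a sub-toxic cotreatment; 0% = median of DMSO wells and 100% = median of geldanamycin control wells; wells of about 8 µL received 7.5 nL stock; the first replicate is given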
AF4-AF9 inh – inhibitors of human MLL-AF4/AF9 interaction | P42568 | AlphaScreen, biotin-AF4 peptide binding to FLAG-AF9 | inhibition, % at 10 µM | hit rate 0.47% among 350,000 | AID 651704;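 active means every replicate reaching a set inhibition limit, whatever the replicate mean, cut at about 25% in these data; inconclusive means mean inhibition reaches that limit but some replicates miss it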;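 further: 0% = plate neutral control median and 100% = total signal loss; the record names both 10 and 1 µM as test concentration; the first replicate is given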
Target sequence (P42568 whole entry, looked up): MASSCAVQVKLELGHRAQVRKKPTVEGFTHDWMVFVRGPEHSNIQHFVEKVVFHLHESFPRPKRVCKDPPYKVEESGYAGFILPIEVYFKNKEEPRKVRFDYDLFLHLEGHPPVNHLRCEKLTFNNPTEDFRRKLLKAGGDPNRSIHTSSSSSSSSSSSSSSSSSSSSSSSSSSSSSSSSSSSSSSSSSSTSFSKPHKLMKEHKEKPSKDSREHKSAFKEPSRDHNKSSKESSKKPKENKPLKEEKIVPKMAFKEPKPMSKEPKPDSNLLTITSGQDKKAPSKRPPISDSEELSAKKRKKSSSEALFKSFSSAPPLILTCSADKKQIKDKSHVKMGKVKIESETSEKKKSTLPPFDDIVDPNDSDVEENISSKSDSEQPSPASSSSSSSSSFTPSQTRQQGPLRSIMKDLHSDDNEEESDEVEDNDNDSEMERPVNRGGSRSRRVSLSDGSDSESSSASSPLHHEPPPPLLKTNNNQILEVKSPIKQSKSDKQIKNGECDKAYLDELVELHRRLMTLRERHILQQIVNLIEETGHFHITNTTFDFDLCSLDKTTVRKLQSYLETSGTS
rRNA inh HTS OD600 – second read-out of rRNA inh HTS, no call of its own (marks repeat the call); OD600 change, %; measured here: OD600 growth;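 optical density of the mix in the first replicate; 0 = DMSO median and -100 = no signal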
rRNA inh HTS RFP – recorded beside rRNA inh HTS, whose call it bears; RFP signal change, %; measured here: RFP humanized mutant strains;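 first replicate; 0 = DMSO median and -100 = no signal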
Numbers without * were called inactive.

What do the screens show for `CC(C)C(=O)Nc1ccc2c(c1)C(=O)N(CCC(=O)O)C2=O`?
RanGTP-Imp inh: 3.5; T cruzi inh: -4; Beta apoptosis: 3; ALR inh: 1; Calb FLC: -4

Results for CS(=O)(=O)N1N=C(c2ccco2)CC1c1ccc(Cl)cc1 (centres undefined) ?
RanGTP-Imp inh: 0.1; T cruzi inh: -15; Beta apoptosis: -1; ALR inh: -3; Calb FLC: 1

What do the screens show for `CC(C)(C)NC(=O)NC(=O)CN1CCN(c2ccccc2O)CC1`?
FGF22 binding: inactive; RanGTP-Imp inh: 3.0; T cruzi inh: 6; rRNA inh HTS: 14; Beta apoptosis: -1; ALR inh: 74; Calb FLC: 13; AF4-AF9 inh: 0.2; rRNA inh HTS OD600: 8; rRNA inh HTS RFP: 4.4

Results for Nc1cccc(Oc2cnccn2)c1 ?
FGF22 binding: inactive; RanGTP-Imp inh: -2.1; T cruzi inh: -4; rRNA inh HTS: 1; Beta apoptosis: -1; ALR inh: 0; Calb FLC: -42; AF4-AF9 inh: -4.4; rRNA inh HTS OD600: 12; rRNA inh HTS RFP: -0.3

Results for Nn1c(SCC(=O)Nc2c(Cl)cccc2Cl)nncc1=O ?
FGF22 binding: inactive; RanGTP-Imp inh: inconclusive; T cruzi inh: -4; rRNA inh HTS: 5; ALR inh: -1; Calb FLC: 4; AF4-AF9 inh: 2.9; rRNA inh HTS OD600: 3; rRNA inh HTS RFP: -1.4

What do the screens show for `CC(C)c1ccc(NC(=O)CN2CCN(C(=O)C3CCCO3)CC2)cc1` (centres undefined)?
FGF22 binding: inactive; RanGTP-Imp inh: -2.1; T cruzi inh: -13; rRNA inh HTS: -2; Beta apoptosis: -23; ALR inh: -1; Calb FLC: 0; AF4-AF9 inh: -2.7; rRNA inh HTS OD600: 11; rRNA inh HTS RFP: 0.4

What do the screens show for `O=C(CSc1nc2ccccc2c(=O)n1C1CC1)NCc1ccccc1`?
RanGTP-Imp inh: 1.4; T cruzi inh: 6; Beta apoptosis: 3; ALR inh: -19; Calb FLC: -8

Results for CCOC(=O)N1CCc2c(sc3c2c(=O)n(Cc2ccccc2)c(=O)n3Cc2ccc(C)cc2)C1 ?
FGF22 binding: inactive; RanGTP-Imp inh: -5.2; T cruzi inh: 48; rRNA inh HTS: 1; ALR inh: -5; Calb FLC: 1; AF4-AF9 inh: -0.2; rRNA inh HTS OD600: 4; rRNA inh HTS RFP: -3.2

Results for O=C(CN1CCN(Cc2ccccc2F)C1=O)NCc1cccnc1 ?
FGF22 binding: inactive; RanGTP-Imp inh: 0.9; T cruzi inh: -3; rRNA inh HTS: 8; Beta apoptosis: -2; Calb FLC: -5; AF4-AF9 inh: -3.0; rRNA inh HTS OD600: 9; rRNA inh HTS RFP: -0.7

How did CCCCN(C)C(=O)c1cc2c(s1)-c1ccccc1S(=O)(=O)C2 do in these assays?
FGF22 binding: inactive; RanGTP-Imp inh: 1.1; T cruzi inh: 12; rRNA inh HTS: -1; Beta apoptosis: 1; Calb FLC: 1; AF4-AF9 inh: 3.4; rRNA inh HTS OD600: 2; rRNA inh HTS RFP: 1.2

How did CCOC(=O)CCc1c(C)nc2cc(-c3ccc(F)cc3)[nH]n2c1=O do in these assays?
RanGTP-Imp inh: -2.3; T cruzi inh: 30; Beta apoptosis: -1; Calb FLC: 3

How did O=C1CCCN1CCCNc1ncnc2c1[nH]c1ccc(Cl)cc12 do in these assays?
RanGTP-Imp inh: 0.8; T cruzi inh: 13; rRNA inh HTS: -23*; Beta apoptosis: 1; ALR inh: 98*; Calb FLC: 2; rRNA inh HTS OD600: -12*; rRNA inh HTS RFP: -0.5*

How did CC(=O)n1c(Cl)c(NC(=O)CCl)c2ccccc21 do in these assays?
FGF22 binding: inactive; RanGTP-Imp inh: 2.5; T cruzi inh: -28; rRNA inh HTS: 5; Beta apoptosis: -22; ALR inh: 75; Calb FLC: 4; AF4-AF9 inh: 4.2; rRNA inh HTS OD600: 6; rRNA inh HTS RFP: -7.5

What do the screens show for `COc1ccccc1CNC(=O)Cc1ccc(Br)cc1`?
RanGTP-Imp inh: inconclusive; T cruzi inh: 14; Beta apoptosis: 0; ALR inh: 3; Calb FLC: -6

How did CC1CCCN(CC(O)COCc2ccc3c(c2)OCO3)C1 (centres undefined) do in these assays?
FGF22 binding: inactive; RanGTP-Imp inh: -2.7; T cruzi inh: 1; rRNA inh HTS: 16; Beta apoptosis: -1; Calb FLC: -2; AF4-AF9 inh: -0.2; rRNA inh HTS OD600: -2; rRNA inh HTS RFP: 1.2

Among those listed so far, these have fluorine:
Results for O=C(CN1CCN(Cc2ccccc2F)C1=O)NCc1cccnc1 ?
FGF22 binding: inactive; RanGTP-Imp inh: 0.9; T cruzi inh: -3; rRNA inh HTS: 8; Beta apoptosis: -2; Calb FLC: -5; AF4-AF9 inh: -3.0; rRNA inh HTS OD600: 9; rRNA inh HTS RFP: -0.7

How did CCOC(=O)CCc1c(C)nc2cc(-c3ccc(F)cc3)[nH]n2c1=O do in these assays?
RanGTP-Imp inh: -2.3; T cruzi inh: 30; Beta apoptosis: -1; Calb FLC: 3

Next part
What do the screens show for `COc1cccc(C(C(=O)NC(C)(C)C)N(C(=O)CCC(=O)Nc2cc(C)on2)c2ccc3c(c2)OCCO3)c1OC` (centres undefined)?
FGF22 binding: inactive; RanGTP-Imp inh: -5.6; T cruzi inh: -4; rRNA inh HTS: 3; Beta apoptosis: 2; ALR inh: -1; Calb FLC: 22; AF4-AF9 inh: 3.8; rRNA inh HTS OD600: 4; rRNA inh HTS RFP: -2.0

How did O=C(O)c1[nH]c2ccccc2c1-c1ccccc1 do in these assays?
RanGTP-Imp inh: -1.6; T cruzi inh: 1; Beta apoptosis: -5; ALR inh: 98*; Calb FLC: 6

What do the screens show for `O=C1C2C3C=CC(C3)C2C(=O)N1CNc1ccc(O)cc1` (centres undefined)?
RanGTP-Imp inh: 4.9; T cruzi inh: -4; Beta apoptosis: -10; ALR inh: 99*; Calb FLC: 33

How did COc1ccccc1NS(=O)(=O)c1ccc(N2CCOCC2)c(N)c1 do in these assays?
FGF22 binding: inactive; rRNA inh HTS: 3; Beta apoptosis: -2; AF4-AF9 inh: -0.7; rRNA inh HTS OD600: -4; rRNA inh HTS RFP: 6.9

Results for Cc1cc(S(=O)(=O)/N=C(\N)c2ccc(C(N)=O)cc2)cc(C)c1F ?
FGF22 binding: inactive; RanGTP-Imp inh: -0.6; T cruzi inh: -11; rRNA inh HTS: 2; Beta apoptosis: -4; ALR inh: 4; Calb FLC: 1; AF4-AF9 inh: -0.9; rRNA inh HTS OD600: 12; rRNA inh HTS RFP: 5.5

Results for COc1ccc(C2C(C(=O)NCc3ccccn3)CCC(=O)N2c2cc(OC)c(OC)c(OC)c2)cc1 (centres undefined) ?
FGF22 binding: inactive; RanGTP-Imp inh: 0.0; T cruzi inh: -2; rRNA inh HTS: 12; Beta apoptosis: -8; ALR inh: -12; Calb FLC: -5; AF4-AF9 inh: 7.0; rRNA inh HTS OD600: 11; rRNA inh HTS RFP: 6.0

What do the screens show for `c1ccc(CCNCC2COc3ccccc3O2)cc1` (centres undefined)?
FGF22 binding: inactive; RanGTP-Imp inh: 0.8; T cruzi inh: 45; rRNA inh HTS: 9; Beta apoptosis: -1; ALR inh: 3; Calb FLC: -42; AF4-AF9 inh: -2.2; rRNA inh HTS OD600: 3; rRNA inh HTS RFP: 1.6

Results for CCC(Cc1ccccc1)NC(=O)CCn1cccc1 (centres undefined) ?
RanGTP-Imp inh: -1.1; T cruzi inh: -13; Beta apoptosis: 1; ALR inh: 10; Calb FLC: -39

Results for Cc1ccc(OCC(=O)NC2CCS(=O)(=O)C2)cc1 (centres undefined) ?
RanGTP-Imp inh: -2.2; T cruzi inh: 0; rRNA inh HTS: 24; Beta apoptosis: -10; ALR inh: 1; Calb FLC: -3; rRNA inh HTS OD600: 18; rRNA inh HTS RFP: 0.5

Results for O=C(Oc1ccc2c(c1)OCO2)c1cccs1 ?
RanGTP-Imp inh: -0.8; T cruzi inh: -9; Beta apoptosis: 1; ALR inh: -3; Calb FLC: 8

What do the screens show for `O=C(Cn1cnnn1)NCCc1ccc(Cl)cc1Cl`?
FGF22 binding: inactive; RanGTP-Imp inh: 3.6; T cruzi inh: -8; rRNA inh HTS: -2; Beta apoptosis: -2; ALR inh: -3; Calb FLC: 4; AF4-AF9 inh: 3.3; rRNA inh HTS OD600: -8; rRNA inh HTS RFP: -3.3

What do the screens show for `N#C/C(=C\c1ccc(OCc2ccc(C(=O)O)cc2)cc1)C(=O)NCc1ccccc1`?
FGF22 binding: inactive; RanGTP-Imp inh: -1.6; T cruzi inh: -17; rRNA inh HTS: 1; ALR inh: 30; Calb FLC: 4; AF4-AF9 inh: -27; rRNA inh HTS OD600: 7; rRNA inh HTS RFP: 0.8

Results for Cc1ccc(C)c(S(=O)(=O)N2CCN(C(=O)c3cccnc3)CC2)c1 ?
FGF22 binding: inactive; RanGTP-Imp inh: 6.4; T cruzi inh: -2; rRNA inh HTS: 13; Beta apoptosis: 3; ALR inh: -6; Calb FLC: -4; AF4-AF9 inh: -2.5; rRNA inh HTS OD600: 12; rRNA inh HTS RFP: -0.2

What do the screens show for `CC(CCCC(C)(C)O)NC(=O)c1ccc2oc(CCc3ccccc3)nc2c1` (centres undefined)?
FGF22 binding: inactive; RanGTP-Imp inh: 7.8; T cruzi inh: -5; rRNA inh HTS: -16; Beta apoptosis: 8; Calb FLC: -4; AF4-AF9 inh: -0.2; rRNA inh HTS OD600: -16; rRNA inh HTS RFP: -0.4

Results for CCCCn1c(N)c(N(C(=O)CSc2nnnn2-c2ccccc2)C2CCCC2)c(=O)[nH]c1=O ?
FGF22 binding: inactive; rRNA inh HTS: 3; Beta apoptosis: -1; AF4-AF9 inh: 0.4; rRNA inh HTS OD600: 7; rRNA inh HTS RFP: -2.7

Results for CN(CC(=O)N1CCN(c2ccccc2)CC1)C1CCCc2ccccc21 (centres undefined) ?
FGF22 binding: inactive; RanGTP-Imp inh: -4.3; T cruzi inh: 3; rRNA inh HTS: 4; Beta apoptosis: -2; ALR inh: 32; Calb FLC: 10; AF4-AF9 inh: 2.7; rRNA inh HTS OD600: -15; rRNA inh HTS RFP: 0.5

How did CC1CN(CCc2ccccc2)c2nc3c(c(=O)n(CC(N)=O)c(=O)n3C)n2C1 (centres undefined) do in these assays?
FGF22 binding: inactive; RanGTP-Imp inh: 7.8; T cruzi inh: 46; rRNA inh HTS: 1; Beta apoptosis: -1; ALR inh: -1; Calb FLC: -1; AF4-AF9 inh: 4.2; rRNA inh HTS OD600: 8; rRNA inh HTS RFP: 1.0

The list is partial (hit frequency here may not be typical).
